Screening results deposited in PubChem BioAssay by National Center for Advancing Translational Sciences (NCATS).
miR-21 FLuc: raises the signal of a miR-21 reporter; HeLa miR-21 FLuc reporter, luciferase, 48 h; Potency, µM (series often up to 38.3 µM), inactives show top-dose reporter change, positive = more light; 340,000 tested, under 10 active; active = well fitted rising curve with a large enough effect; inconclusive = small, poorly fitted or top-dose-only effect; inactive = no such curve, though single readings can be large or run the other way;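 also: % of control where 0% means no effect; miR-21 action dims this reporter so a rising signal means less miR-21 action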
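Using DMEM plus 10% FBS, HeLa miR-21-FLuc cells are incubated with test compounds (final up to about 40uM) for 48 hours; firefly luciferase signal is then imaged following reagent-mediated lysis.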
GLA inh pH 4.5: inhibitors of human alpha-galactosidase A at pH 4.5; purified enzyme, 4-MU-alpha-Gal fluorescence, pH 4.5; activity change, negative = inhibition, % at 105 µM; 230,000 tested, under 10 active; AID 1467; inconclusive = small, poorly fitted or top-dose-only inhibition, or a rising curve; inactive = flat fitted curve, though single readings scatter; no compound was filed as active;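 also: 0% = full activity with enzyme and -100% = basal without enzyme; dose as in the result columns while the protocol names 77 µM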
Target sequence (P06280 whole entry, looked up): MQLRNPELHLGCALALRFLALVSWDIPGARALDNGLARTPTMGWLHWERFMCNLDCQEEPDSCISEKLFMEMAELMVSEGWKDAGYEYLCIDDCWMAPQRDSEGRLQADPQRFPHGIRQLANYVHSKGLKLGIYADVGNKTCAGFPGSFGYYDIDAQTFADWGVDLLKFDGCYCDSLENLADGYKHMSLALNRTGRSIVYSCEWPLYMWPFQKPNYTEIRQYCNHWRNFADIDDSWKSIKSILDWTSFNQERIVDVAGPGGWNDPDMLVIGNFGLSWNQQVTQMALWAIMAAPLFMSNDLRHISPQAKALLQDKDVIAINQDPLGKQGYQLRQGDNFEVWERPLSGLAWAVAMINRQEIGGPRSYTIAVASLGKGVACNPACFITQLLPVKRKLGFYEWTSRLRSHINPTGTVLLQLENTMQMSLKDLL
Rango release inh: inhibition of RanGTP-driven Rango-importin beta dissociation | AID 540253 | 340,000 compounds, 0.071% hits | Potency, µM (top dose mostly 46.1 µM), for the others: at the top dose activity change, negative = inhibition | Biochemical FRET Rango-importin beta, RanGTP-induced dissociation | O95149+P62826; active means falling FRET ratio curve, often poorly fitted, with flat reads before Ran was added; inconclusive means other falling curves, or compound fluorescence or quenching; inactive means flat or rising ratio curve;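 also: potency is read from the fitted curve at half-maximal effect; % of control where 0% means no effect; nearly all actives have a fitted effect of over 45% in size; -100% = wells without RanGTP and RCC1; the record marks most hits as doubtful in a second field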
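Compounds preincubate 5 min with complex of recombinant Rango and importin beta in PBS with 1 mM DTT. Ran (0.6 uM) loaded with 2 mM GTP plus 0.2 uM RCC1 starts dissociation; FRET is recorded 45 min later.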
Rango-impB inh: inhibitors of Rango-importin beta complex formation; Potency, µM (titrated, usually from 92.2 µM), for the others: at the top dose inhibition of complex formation; Rango CFP/YFP FRET sensor + importin beta, 45 min; 340,000 compounds, 0.031% hits; Q14974; active = rising FRET ratio curve, often small or poorly fitted; inconclusive = mostly compound fluorescence or quenching in the first reads; inactive = flat curves in all reads;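 also: potency is read from the fitted curve at half-maximal effect; 0% = DMSO wells and 100% = buffer wells lacking importin beta; nearly all actives have a fitted effect of over 15% in size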
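FRET biosensor (snurportin 1 IBB flanked by EYFP and cerulean), 50 nM, with compound 5 min, then 0.125 microM importin beta in PBS, 1 mM DTT, 0.02% Tween-20, 0.1% BSA. CFP/YFP ratio read after 45 min at room temperature; pre-read flags interference.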
* hit, by the source's call; ? = inconclusive; . = not tested or not shown; & = joins results of further samples. This is a subset; the hit share may differ from the screen's.

SMILES	miR-21 FLuc	GLA inh pH 4.5	Rango release inh	Rango-impB inh
CN(C)S(=O)(=O)c1ccc(N2CCCC2)c(C(=O)N2CCN(S(=O)(=O)c3cccc(F)c3)CC2)c1	.	.	15.7%	-1.7%
COCC(=O)N(C)c1nnc(-c2ccccn2)s1	-36.5%	1.4	4.8%	1.6%
CCOc1cc(C(=O)NC)cc(Br)c1OC	7.8%	4.9	16.5%	3.5%
CN(C(=O)c1cccnc1)c1nnc(-c2ccccn2)s1	-38.9%	-6.3	1.1%	0.9%
CCC(=O)NCCCCCCCCCNC(=O)CC	-3.7%	1.1	-8.1%	0.5%
CCN1C(=O)N[C@@H](c2ccccc2)C(C(=O)OC)=C1C	.	1.0	-0.7%	0.1%
COc1ccccc1-c1cc(C(=O)NCCN2CCOCC2)no1	-12.0%	-2.8	-9.7%	3.5%
CCN(CC(=O)NCc1cccs1)C(=O)c1cccc(S(=O)(=O)Nc2ccc(F)cc2)c1	.	.	-7.1%	5.5%
CCN1CCN(c2ccc(S(=O)(=O)N3CCCC3)cn2)CC1	-2.0%	5.0	-3.5%	-4.2%
CC1CCc2cc(F)ccc2N1S(=O)(=O)c1ccc(F)cc1 (centres undefined)	-2.8%	.	10.1%	-0.2%
Cn1cc(C(=O)N/N=C/C=C/c2ccccc2)ccc1=O	0.0%	-24.2	1.6%	-0.3%
CCOC(=O)C1(Cc2cccc(F)c2)CCN(C(=O)c2cnc(C)cn2)CC1	-2.8%	4.3	2.7%	0.9%
Cc1ncc([N+](=O)[O-])n1CC(=O)Nc1ccc(F)cc1	-12.9%	.	14.8%	-3.4%
CCOc1ccc(NC(=S)N(C)C)cc1	1.3%	3.4	24.3%	0.4%
O=C(COc1ccc(Cl)cc1)NCc1nnc(SCC(=O)N2CCCC2)o1	-0.4%	3.3	-8.2%	-4.2%
COc1cc(OC)cc(C(=O)NNC(=O)CN2C(=O)NC3(CCCC3)C2=O)c1	.	.	0.2%	-1.1%
COC(=O)c1ccc(NC(=O)CSc2nc3ncccc3[nH]2)cc1	-1.1%	3.8	-11.5%	0.2%
COC(=O)C1=C(C)N(C)C(=S)N(C)C1c1ccc(OC)cc1 (centres undefined)	-2.8%	-3.7	-10.9%	-1.3%
CC(=O)c1c(COC(=O)c2ccc(F)cc2)nc2ccccc2[n+]1[O-]	4.9%	-4.5	-11.6%	-2.6%
CCNC(=O)c1ccc(CSc2nc3ccccc3s2)cc1	-10.4%	.	-2.3%	-3.2%
O=C(Nc1ccc(C(=O)O)cc1)/C(=C\c1ccco1)NC(=O)c1ccccc1Cl	6.7%	.	-8.7%	0.5%
O=C(Cn1nc(C(F)(F)F)c2c1CCC2)Nc1ccccc1C(F)(F)F	-3.3%	-1.6	-5.0%	-1.0%
O=C1C(C2=NC(c3ccccn3)C3C(=O)N(c4ccccc4)C(=O)C23)=C(O)c2ccccc21 (centres undefined)	-1.9%	-1.4	-3.1%	-0.4%
COC(=O)c1c(C)[nH]c(C(=O)C(C)Sc2nnc(-c3cc(OC)c(OC)c(OC)c3)o2)c1C (centres undefined)	-1.7%	9.5	-6.5%	-3.1%
Cc1n[nH]c(=O)nc1NCC1CCCO1 (centres undefined)	-5.3%	-4.8	20.8%	3.4%
COCCN(C(=O)CSc1ccc2c(c1)OCCO2)c1c(N)n(CC(C)C)c(=O)[nH]c1=O	.	.	0.5%	2.1%
Cc1noc(C)c1C(=O)N1CCN(c2ccc(OCc3ccccc3)cc2)CC1	0.0%	-2.2	23.9%	-3.6%
CN(c1ccccc1)S(=O)(=O)c1cccc(NC(=O)CCNC(=O)c2ccc(Cl)cc2)c1	.	.	?	-1.5%
CC1=NN(c2nc(-c3ccc(C)cc3)cs2)C(=O)C1N=Nc1ccc(C(N)=O)cc1 (centres undefined)	1.5%	-8.8	0.4%	3.6%
CC(C)Nc1nc(-c2ccncc2)nc(-c2ccc(Cl)cc2)c1C#N	1.0%	11.6	14.6%	-1.5%
COc1ccc(N2CCC(CNC(=O)Nc3cccc(OC)c3)C2)cc1 (centres undefined)	7.0%	6.6	-12.8%	-2.6%
COc1cc(CN(C)C(=O)C2CCN(S(=O)(=O)c3cccs3)CC2)ccc1OC(F)F	.	.	11.7%	1.8%
CC#CC[N+](C)(C)CC(=O)c1ccccc1	0.7%	-3.4	7.7%	1.8%
O=C1CCCN1CC(=O)N1CCCC(Nc2cccc(F)c2)C1 (centres undefined)	-4.1%	.	-7.4%	-4.9%
Cc1cc(N2CCC(C)CC2)n2ncc(-c3ccccc3)c2n1	-41.7%	4.0	16.9%	2.1%
CCN(C(=O)COn1nnc2ccc(S(=O)(=O)N(C)C)cc21)C1CCS(=O)(=O)C1 (centres undefined)	.	.	-5.9%	-0.4%
COc1cccc(C2C3=C(CC(C)(C)CC3=O)Nc3n[nH]c(C)c32)c1 (centres undefined)	-3.5%	3.4	11.0%	-2.3%
C=CCn1c(SCC(=O)Nc2ccc(-c3nc4ccc(C)cc4s3)cc2)nnc1-c1ccncc1	-60.9%	14.3	-11.5%	1.7%
Cc1cccc(NC(=S)NCCN2CCOCC2)c1	-10.1%	-6.6	5.8%	-0.1%
N#Cc1c(NC(=O)C2CC(c3ccccc3Cl)=NO2)sc2c1CCC2 (centres undefined)	-9.6%	-0.7	0.4%	0.5%
O=Cc1c[nH]c2cccc(OCc3ccccc3)c12	.	.	6.1%	58µM*
CC(NC(=O)CCCCCN1C(=O)c2ccccc2C1=O)c1ccc2c(c1)CCCC2 (centres undefined)	-2.3%	-18.6	13.6%	2.7%
CCOC(=O)c1sc(=S)n(-c2cccc(OC)c2)c1N	-11.6%	7.5	-14.3%	-8.3%
CN(CC(O)COc1ccccc1F)C1CCCCC1 (centres undefined)	-4.4%	-7.9	-11.3%	-1.6%
Cc1ccc2nc(-c3ccc(N4C(=O)CC(N5CCC(C(N)=O)CC5)C4=O)cc3)sc2c1 (centres undefined)	-33.1%	-6.5	.	.
CN1C=CC(=CC=C2C=CC(=O)C=C2)C=C1	1.0%	-18.2	?	?
O=C(CNC(=O)Cn1ccc2ccccc2c1=O)NCCCN1CCN(c2cccc(Cl)c2)CC1	8.9%	-6.2	-11.6%	-0.4%
CCn1c(CNC(=O)c2ccccc2F)nnc1SCc1nc2ccccc2c(=O)[nH]1	1.6%	5.3	.	.
Cc1onc(-c2ccccc2)c1C(=O)N(C)CCc1ccccn1	-0.8%	.	4.5%	2.3%
O=[N+]([O-])c1ccc(NCCOc2ccccc2Cl)nc1	-22.6%	.	-7.2%	0.0%
CCCCNCCCOc1cccc(Cl)c1Cl	-12.4%	-5.2	0.5%	-0.6%
O=C1OCCC1Sc1nc2cc(Cl)ccc2s1 (centres undefined)	-1.6%	-5.4	19.3%	3.6%
CCCn1ncc(CN2CCC(Cc3cccc(F)c3)(C(=O)OCC)CC2)c1C	-3.5%	0.8	-3.6%	1.8%
O=C(CSc1nnc(Cn2c(=O)sc3ccccc32)n1-c1ccccc1)NCC1CCCO1 (centres undefined)	2.4%	7.2	-8.6%	-1.6%
O=C(Cc1ccccc1)NNC(=S)NC(=O)c1cccnc1	-6.2%	-6.2	-9.7%	-2.3%
CCN(c1ccccc1)S(=O)(=O)c1ccc(Cl)c(NC(=O)CN(C)C2CCN(C)CC2)c1	-10.5%	0.9	-3.1%	-2.4%
O=c1c2sc3ccccc3c2[nH]c(=S)n1CCN1CCOCC1	-26.9%	1.5	-1.1%	0.9%
CCCC(=O)Nc1ccc2c(c1)nc(CCNC(=O)c1ccccc1)n2C	-3.9%	-8.1	-15.0%	-4.0%
O=C(NCCN=C1NS(=O)(=O)c2ccccc21)c1ccncc1	0.4%	4.2	-22.4%	?
Cc1c(C(=O)Nc2ccc(F)cc2)c2ccccn2c1CCc1ccncc1	1.4%	3.6	-27.3%	?
(further entries)
SMILES	miR-21 FLuc	GLA inh pH 4.5	Rango release inh	Rango-impB inh
CC1CC(C)CN(Cc2nc(N)nc(Nc3ccccc3)n2)C1 (centres undefined)	0.6%	-7.4	-4.2%	-1.4%
COc1ccccc1N1C(=O)C(Cl)=C(N2CCCC2)C1=O	0.2%	.	-7.3%	?
O=C(O)c1ccccc1-n1c2ccccc2c2ccccc21	-12.9%	-0.5	1.3%	0.1%
Nc1ccccc1C#CCCCCO	-17.0%	-5.7&1.8	0.3%	-3.5%
CCOC(=O)c1c(NC(=O)C2CCCCC2C(=O)O)sc2c1CCCCC2 (centres undefined)	3.0%	-2.7	-2.0%	-2.9%
O=C(CNC(=O)N1CC(=O)Nc2ccccc21)NCCc1ccc(Cl)cc1	-1.2%	.	7.3%	-4.9%
Cc1cscn1	.	.	0.6%	-0.4%
COc1cccc2cc(-c3cc(=O)oc4ccc(OCC(C)=O)cc34)oc12	7.8%	.	-11.7%	-0.4%
Cc1ccc(SCCC(=O)NCC2CCCO2)cc1 (centres undefined)	-8.4%	5.6	9.2%	-2.5%
CN1C(=O)N(C)C2C1N(CN1CCCCC1)C(=O)N2CN1CCCCC1 (centres undefined)	-0.5%	-1.1	9.8%	4.2%
CCOc1cccc(C(=O)Nc2ccc(S(=O)(=O)Nc3cc(C)on3)cc2)c1	-8.2%	.	-8.5%	-0.1%
COc1ccccc1N1CCN(C(=O)c2oc3ccc(F)cc3c2C)CC1	12.1%	-26.7	-3.9%	-2.7%
CCOC(=O)NC(=O)CSc1nc2ccc([N+](=O)[O-])cc2[nH]1	0.0%	-10.4	23.6%	9.7%
CCc1c(C)n([O-])c2c([n+]1=O)CCCCC2	1.9%	6.4	9.7%	2.6%
COc1ccc(-n2nc([N+](=O)[O-])c(=NCCc3ccc(Cl)cc3)n2O)cc1	-20.2%	6.4	-7.2%	4.1%
COc1cccc(-c2csc(NC3OC(=O)c4c3ccc(OC)c4OC)n2)c1 (centres undefined)	-44.0%	2.0	13.3%	-0.2%
COc1ccc(NC(=O)C(c2ccc(Cl)cc2)C(C)C)cn1 (centres undefined)	4.5%	.	0.6%	-0.3%
Cc1ccc(CNC(=O)C2CCC(CNS(=O)(=O)c3cccs3)CC2)cc1 (centres undefined)	-3.3%	.	8.7%	-0.4%
O=C(CCc1ccc(Oc2cc([N+](=O)[O-])cc([N+](=O)[O-])c2)cc1)Nc1cccc(Cl)c1	6.3%	5.3	13.4%	-6.9%
O=C(NC(Cc1ccccc1)C(=O)O)/C(=C/c1ccccc1)NC(=O)c1ccccc1 (centres undefined)	-2.0%	3.6	24.3%	-1.3%
O=C1CN(C(=O)COC(=O)COc2ccccc2)c2ccccc2N1	.	.	-2.9%	1.1%
CC(C)Oc1ccc(S(=O)(=O)N2CCOCC2)cc1NC(=O)CC1OC(=O)c2ccccc21 (centres undefined)	.	.	-10.1%	3.3%
COCCCn1c(SC(C)C(=O)Nc2c(C)n(C)n(-c3ccccc3)c2=O)n[nH]c1=O (centres undefined)	.	.	6.0%	4.9%
COc1ccccc1NC(=O)Cc1cccs1	-3.3%	0.3	5.6%	-0.6%
Cc1noc(NS(=O)(=O)c2ccc(N/C=C/C(=O)c3ccc4c(c3)OCO4)cc2)c1C	-63.0%	6.5	-26.0%	?
O=c1cc(-c2ccc(O)cc2)oc2ccc(O)cc12	-44.0%	9.9&-0.3	?	?
COc1ccc(C(=O)NC(C(=O)NCC(=O)Nc2c(C)cccc2C)C(C)C)cc1 (centres undefined)	-12.8%	6.3	14.1%	3.2%
CN(C)S(=O)(=O)c1ccc(Cl)c(NC(=O)CN2C(=O)NC3(CCc4ccccc43)C2=O)c1 (centres undefined)	.	.	-10.1%	-3.3%
Oc1ccccc1Nc1nc(NCc2ccccc2)c2ccccc2n1	?	-9.5	-7.9%	-3.5%
N#C/C(=C\c1cn[nH]c1-c1ccc(Cl)cc1)C(=O)NC1CC1	4.1%	-26.5	1.1%	-0.1%
Cc1ccc2cc(CN(CC3CCCO3)C(=O)c3cccs3)c(=O)[nH]c2c1 (centres undefined)	0.0%	.	-0.8%	-3.8%

Reprinted at random: two entries already listed
SMILES	miR-21 FLuc	GLA inh pH 4.5	Rango release inh	Rango-impB inh
COc1ccc(NC(=O)C(c2ccc(Cl)cc2)C(C)C)cn1 (centres undefined)	4.5%	.	0.6%	-0.3%
COc1ccccc1-c1cc(C(=O)NCCN2CCOCC2)no1	-12.0%	-2.8	-9.7%	3.5%
